Sa RN4220 lethal = growth inhibition of S. aureus RN4220, primary screen, OD600. 16 h. inhibition, % (no concentration beside the values). 330,000 tested, 0.33% active;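 active means z-score of -3 or lower and OD600 up to 0.18 on both plates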;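 further: plate controls were untreated cells for no effect and reference antibiotic for full effect; stock transfer was 100 nL into about 80 µL; one replicate is shown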
Mtb hypoxia inh = PubChem AID 1159583; 300,000 tested, 0.1% active; fluorescence inhibition, % (concentration not given with the values); M. tuberculosis hypoxia-regulated fluorescent reporter, fluorescence;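 active means 35 to 45% if threefold the growth effect, above 45% if 1.5-fold the growth effect; inactive means the rest, general growth blockers included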;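 further: wells of about 50 µL received 100 nL stock; 0% = vehicle wells and 100% = reference inhibitor wells; whole bacteria with a GFP reporter of the hypoxia response; strong numbers were not always called active; many hits fall short of the cut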
PrP 5UTR inh = inhibition of PrP 5' UTR reporter expression | cell-based PrP 5' UTR mRNA reporter, plate reader | inhibition, % (no concentration beside the values) | 340,000 tested, 0.35% active | AID 488862, 2010;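 active means every replicate at 50% or more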;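 further: 0 = median of the neutral control wells; tested in H4 reporter cells; numbers are from one replicate; inactives centre near -14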
Autofluor counter = compound fluorescence in toxin protease inhibitor counterscreen. compound autofluorescence counterscreen, microsphere flow cytometry; hits give high values. fluorescence intensity (concentration not given with the values). 360,000 tested, 3.1% active;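 active means at least 3 SD above the mean of all compounds, about 16000 in these data; inconclusive means too few beads counted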;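 further: 100 nL of 1 mM stock went into each well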
BJeLR lethal = MLPCN primary cell-based screen for lethality selective to Ras in HRASV12 cells; AID 1554, 2009; BJeLR (HRASV12) viability, CellTiter-Glo ATP luminescence, 48 h; reference of the scale not given here; inhibition, % (test concentration not listed); 300,000 tested, 0.17% active;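 active means replicate mean above 50%; inconclusive means above 50% but judged a plate artefact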;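 further: 50 nL library stock added to about 25 µL; numbers are from one replicate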
Sa ugtP lethal = growth inhibition of ugtP-null S. aureus, primary screen, RN4220 ugtP deletion, OD600. 16 h; some inactives read as strong as hits. growth inhibition, % (no concentration beside the values). 330,000 tested, 0.54% active. AID 1259309, 2017;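 active means z-score under -3 and OD600 up to 0.15 on both plates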;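 further: plate controls were untreated wells for no effect and antibiotic for full effect; wells of about 80 µL received 100 nL stock; the first replicate is given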
Mtb hypoxia inh growth = further read-out of Mtb hypoxia inh, marked with its call; growth inhibition, %; measured here: M. tuberculosis growth (absorbance);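 0% = vehicle and 100% = reference antibiotic; read after six days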
An asterisk follows results filed as active; ? = inconclusive; nt = no result given.

No.	Structure	Sa RN4220 lethal	Mtb hypoxia inh	Mtb hypoxia inh growth	PrP 5UTR inh	Autofluor counter	BJeLR lethal	Sa ugtP lethal
1	O=C(CSCCc1ccccn1)Nc1ccccn1	22	-11	-1	-2	3293	3	8
2	O=C(NCc1cccc(Cl)c1)c1cnn2c1NC(c1ccco1)CC2C(F)(F)F (configuration not stated)	-3.1	-5	-8	nt	10970	5	-3
3	CC1=C(C)CC2C(=O)N(c3cccc4ccccc34)C(=O)C2C1 (configuration not stated)	3.1	nt	nt	-32	6217	-7	1
4	Cc1cc(C)c2c(C)nn(C3CCCCC3)c2n1	4.3	5	9	-16	16323*	9	-5
5	CN1CCN(C(c2ccc(F)cc2)c2ccc3cccnc3c2O)CC1 (configuration not stated)	1.0	-2	8	-24	4728	nt	0
6	COc1cc(OC)c(NS(=O)(=O)c2c(C(=O)N3CCCCC3)c(C)n(C)c2C)cc1Cl	-0.6	-7	-7	-22	nt	-10	-1
7	COCCn1c(SCC(=O)NC2CC2)nc2ccccc21	-0.5	7	8	-23	7804	nt	3
8	COCCN(Cc1ccccc1)C(=S)Nc1ccc(Cl)cc1	1.2	5	7	-10	4037	0	14
9	Cc1cc(C)n(CCCNC(=O)CN(C)S(=O)(=O)c2ccc(Cl)cc2)n1	4.8	-2	-1	1	5928	0	7
10	Cc1cccc(NC(=O)NCc2ccccn2)c1	1.6	5	5	-17	3942	-2	-4
11	NC(=O)C1(N2CCCCC2)CCN(C(=S)Nc2cc(F)cc(F)c2)CC1	-2.6	-15	4	-13	2437	-1	0
12	COc1ccc(C=Nn2c(-c3n[nH]c4c3CCC4)n[nH]c2=S)cc1OC	-3.2	3	10	nt	nt	nt	2
13	C/C(=N\Nc1nc2ccccc2[nH]1)c1ccc(Cl)s1	nt	nt	nt	-43	10223	-7	nt
14	COc1ccc(-c2cc3ccc(O)cc3oc2=O)cc1OC	2.7	2	9	-23	6913	8	-6
15	CC(=O)Nc1ccc(S(=O)(=O)NCCC(=O)OCC(=O)c2cccc(Br)c2)cc1	0.8	-7	5	2	nt	nt	0
16	Nc1nc(SCC(=O)Nc2cccc(Oc3ccccc3)c2)n[nH]1	2.5	4	3	-7	2385	-6	23
17	O=C(O)c1ccccc1C=NNC(=O)C1CCCC1	7.3	8	3	nt	nt	nt	3
18	CCCCN=C(C)C1=C(O)CSC1=O	-2.7	nt	nt	78*	2296	-4	10
19	O=C(O)C1C2CCCCC2=C2CCCCC2C1C(=O)O (configuration not stated)	2.6	2	14	-29	18813*	3	4
20	Cc1c(C2=CCN(S(=O)(=O)c3ccc(Br)cc3)CC2)c2ccccc2n1C	-0.5	-3	11	-18	2798	-4	-6
21	C/C(=N\NC(=O)C(=O)Nc1cc(Cl)ccc1Cl)c1ccncc1	nt	nt	nt	14	11152	-11	nt
22	Cc1ccc(SC(C)C(=O)NCc2cccnc2)cc1 (configuration not stated)	4.0	1	9	-12	3206	1	4
23	Cc1cc(C)cc(N(CC(=O)NCc2ccc3c(c2)OCO3)C(=O)CCC(=O)Nc2ccccn2)c1	1.8	nt	nt	0	2845	-9	-4
24	Cc1nn(-c2ccccc2)c(C)c1/C=N/n1c(-c2ccc(C(C)(C)C)cc2)n[nH]c1=S	nt	nt	nt	-22	2677	-3	nt
25	Cc1cc(C)c(S(=O)(=O)N2CCCOC2CNC(=O)C(=O)NCCCn2ccnc2)c(C)c1 (configuration not stated)	3.6	6	11	-5	2462	-5	5
26	COc1ccc2ccc(OCC(=O)N3c4ccccc4NC(=O)CC3C)cc2c1 (configuration not stated)	0.7	5	10	-11	3949	nt	-1
27	Cc1ccc(Nc2nc(Oc3ccc(=O)[nH]n3)nc(N(C)C)n2)cc1	1.6	nt	nt	4	4829	nt	11
28	CCOC(=O)NN=Cc1ccc(OCCSc2ccc(Cl)cc2)c(OCC)c1	14	2	3	nt	nt	nt	-10
29	O=C(N/N=C/c1ccccc1OCc1ccccc1Cl)c1cccnc1	nt	nt	nt	-26	4364	2	nt
30	CCn1c(C)c(C=NNc2nc3ccccc3s2)c2ccccc21	-12	2	-2	nt	nt	nt	-10
31	COC(=O)c1ccsc1NS(=O)(=O)c1ccccc1	6.6	3	-2	-7	5790	14	-3
32	COc1ccc(NC(=O)CC2SC3=NCCN3C2=O)cc1 (configuration not stated)	0.3	13	0	-9	5052	-3	1
33	COC(=O)NNC(=O)c1ccc(Cl)cc1Cl	1.6	8	-1	-20	2550	4	7
34	COc1ccc(CC(=O)Nc2cccc(C)n2)cc1OC	-2.4	2	1	-10	2404	-6	-6
35	CCCNc1nc2c(c(=O)n(C)c(=O)n2C)n1CCC(C)C	-0.5	-5	-11	-10	2498	2	-2
36	COc1ccccc1-c1c(C(F)(F)F)oc2cc(OCC(=O)Nc3cc(C)ccc3C)ccc2c1=O	7.2	12	5	nt	nt	-1	2
37	CC(=O)N1CCC(O)(c2cccc(C(F)(F)F)c2)CC1	-0.4	-2	5	-3	?	3	1
38	CCNC(=O)NC(=O)C(C)OC(=O)c1c(C)nn(Cc2ccccc2)c1Cl (configuration not stated)	4.8	14	15	-19	2491	-4	12
39	CCOC(=O)c1cnc2ccccc2c1Nc1cccc(C(=O)O)c1	-3.3	1	6	-18	4710	-1	-5
40	COc1ccc(-c2nn(-c3ccccc3)cc2C(=O)Nc2ccc(C(=O)O)cc2)cc1	3.5	-7	2	6	4823	-4	15
41	O=C(Nc1ccc(F)cc1F)C1(c2cccs2)CCOCC1	2.8	13	14	-4	5805	21	3
42	O=C(Nc1cccc2ccccc12)N1CCOCC1	3.0	6	10	-26	5052	-2	-4
43	CC(=O)Oc1ccccc1-c1nc(/C=C/c2ccccc2)no1	0.3	13	13	-37	3072	-2	25
44	CCN1CCCC1CNCc1cccc(OC)c1OCc1ccccc1F (configuration not stated)	-1.0	7	4	-14	11226	-1	0
45	Cc1ccccc1C(=O)Nc1ccc(CN2CCOCC2)cc1	-2.8	-2	2	-3	3077	6	-2
46	Cc1cc(NC(=O)CCC(=O)N(CC(=O)NC2CCCC2)c2ccc(F)cc2)no1	0.7	-4	-5	-6	6096	-3	9
47	CC1=C(C(=O)Nc2cc(C)ccn2)C(c2ccc(C)cc2)C2=C(CCCC2=O)N1 (configuration not stated)	1.1	0	5	-6	3899	0	6
48	COc1ccc(C2=NS(=O)(=O)N(C)C(C(=O)N3CCOCC3)=C2)cc1	-12	7	11	-14	5891	-3	-3
49	O=C(Nc1ccc(SC(F)(F)F)cc1)c1ccccn1	9.2	19	14	-20	4758	1	-2
50	CCOC(=O)Cc1csc(NC(=O)CN2C(=O)c3ccccc3C2=O)n1	4.7	4	6	-12	4339	-11	6
51	CCNc1nc(Oc2ccc(C(=O)OCC)cc2)nc(SC)n1	11	4	11	-22	5151	-6	9
52	O=S(=O)(/C=C/c1ccccc1)NCc1ccccc1Cl	8.8	8	2	-18	1936	0	-2
53	O=C(NCC(=O)N1CCC2(CC1)NCCc1[nH]cnc12)c1ccccc1F	2.3	8	9	-26	5534	0	2
54	O=C(COC(=O)CNC(=O)c1ccc(Cl)cc1)Nc1ccc2c(c1)OCCO2	1.6	7	4	-3	8701	2	2
55	O=C(NN=Cc1cccnc1)NC12CC3CC(CC(C3)C1)C2	4.3	5	12	nt	nt	nt	-1
56	COc1ccc(CCNC(=O)Cn2nnc(-c3cccc(OC)c3OC)n2)cc1OC	5.1	2	0	-19	22884*	0	6

(continued)
No.	Structure	Sa RN4220 lethal	Mtb hypoxia inh	Mtb hypoxia inh growth	PrP 5UTR inh	Autofluor counter	BJeLR lethal	Sa ugtP lethal
57	Cc1csc(NC(CO)c2nc3ccccc3n2CCOCCO)n1 (configuration not stated)	2.3	7	9	-25	4595	-5	-9
58	C=CCn1c(-c2cccc3ccccc23)n[nH]c1=S	7.7	11	11	-23	21011*	-13	1
59	Cc1ccc(C=NNC(=O)COc2ccc(Cl)c(C)c2)o1	4.3	10	-6	nt	nt	nt	-16
60	COc1ccccc1NC(=O)Cn1c(=O)oc2cc(S(=O)(=O)N3CCCC3)ccc21	0.6	7	-1	-8	6305	-3	5
61	COc1ccc(C(=O)N2CCN(C(=O)c3ccncc3)CC2)cc1	3.3	0	8	-18	9835	-14	5
62	Cc1ccc(C)c(NS(=O)(=O)c2cc(C(=O)NCc3ccco3)ccc2C)c1	1.4	5	5	-20	10673	-6	-11
63	Cc1cccc(OCc2nnc(SCC(=O)O)n2Cc2ccccc2)c1	13	-4	1	-15	4363	5	3
64	C/C(=N\NC(=O)CC#N)C1COc2ccccc2O1 (configuration not stated)	nt	nt	nt	-43	2243	2	nt
65	Cc1cc(C)cc(OCc2nnc(N)s2)c1	-1.5	-1	3	-2	5131	10	-10
66	CC(NC(=O)CN(C)S(=O)(=O)c1cccc2nsnc12)c1ccccc1 (configuration not stated)	2.7	7	5	-12	4961	6	5
67	Cc1ccc(C(=O)NCCCn2ccnc2)cn1	-1.1	-1	-3	-25	3115	-9	-5
68	COc1ccc(S(=O)(=O)N2CCN(CC(=O)Nc3ccc(F)c(F)c3)CC2)cc1	0.5	nt	nt	-10	4702	-4	-3
69	C1CN(c2nc3nonc3n3nnnc23)CCO1	5.2	7	8	-14	7759	5	6
70	CCCCCSc1nc(C)c(CC(=O)O)c(=O)[nH]1	-0.9	2	-2	-9	4879	-8	6
71	Cc1ccccc1NC(=S)NNC(=O)c1csc2c1CCC(C)C2 (configuration not stated)	2.1	8	-1	42	7888	1	12
72	COCC1CCN(Cc2nc(-c3cccs3)no2)C1 (configuration not stated)	2.6	16	7	-37	3527	-3	4

Two compounds picked at random from the list so far:
No.	Structure	Sa RN4220 lethal	Mtb hypoxia inh	Mtb hypoxia inh growth	PrP 5UTR inh	Autofluor counter	BJeLR lethal	Sa ugtP lethal
65	Cc1cc(C)cc(OCc2nnc(N)s2)c1	-1.5	-1	3	-2	5131	10	-10
67	Cc1ccc(C(=O)NCCCn2ccnc2)cn1	-1.1	-1	-3	-25	3115	-9	-5

The results go on.
No.	Structure	Sa RN4220 lethal	Mtb hypoxia inh	Mtb hypoxia inh growth	PrP 5UTR inh	Autofluor counter	BJeLR lethal	Sa ugtP lethal
73	COc1ccc(CCn2c(=O)[nH]c3cc(C(=O)N4CCN(c5ccccn5)CC4)ccc3c2=O)cc1OC	1.5	-4	0	43	3216	10	3
74	CCc1ccc(N2C(=O)C3NN=C(C(=O)OCc4ccccc4)C3C2=O)cc1 (configuration not stated)	nt	nt	nt	-32	6610	-11	nt
75	Cn1c(=O)c2c(nc(Cl)n2CCOc2ccccc2)n(C)c1=O	-1.4	9	5	-6	5836	12	3
76	Fc1ccc(/C=N/c2c(-c3ccc(F)cc3)nc3n2CCS3)cc1	nt	nt	nt	-11	5925	-7	nt
77	FC(F)(F)c1ccc(-c2nc(=S)[nH][nH]2)cc1	0.7	2	6	-33	6214	2	2
78	COc1cc(Cl)c(C)cc1NC(=O)COc1ccccc1[N+](=O)[O-]	5.6	5	4	-47	5777	5	-12
79	CCOC(=O)CSc1nnc(NC(=O)NC(C)C)s1	5.2	7	0	-16	2383	-13	3
80	O=C(O)COc1ccc(C=Nn2cnc3scc(-c4cccs4)c3c2=O)cc1	4.1	6	-1	nt	nt	nt	4

From PubChem
